# Screens as filed in PubChem.
# Ba CapD inh = CapD enzyme inhibition. purified CapD enzyme, fluorescence intensity read-out; stronger effect = lower value; some hits fall short of the stated cut. AID 492967. z-score (concentration not given with the values). actives 0.23% (n = 140,000);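 active = z-score under -4 in either of two replicates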;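 also: stock transfer was 100 nL into about 40 µL; score is relative to mean and spread of the plate; one replicate is shown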
# AID504770 = E. coli YBA685 growth inhibition, screen for V. cholerae RctB inhibitors | E. coli YBA685 rctB-dependent plasmid, OD600 growth, 3 h; stronger effect = lower value | z-score (concentration not given with the values) | actives 0.27% (n = 130,000) | AID 504770;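 active = z-score under -2 on both plates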;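 also: wells of about 30 µL received 100 nL stock; score is relative to mean and SD of the test wells; the first replicate is given; strong numbers were not always called active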
# * = called active by the depositor; . = no result given; & = joins results of further samples.
SMILES,Ba CapD inh,AID504770
O=C(CC1(O)C(=O)N(Cc2ccccc2Cl)c2ccccc21)c1cccs1 (stereo not drawn),-0.355,.
CCCc1nnc(SCC(=O)NC2CC3CCC2C3)o1 (stereo not drawn),.,-0.45
C=CC[n+]1ccccc1/C=N/O,-0.5,1.3
COc1ccc(-c2noc(N3CCCC(C(=O)NCCc4ccc(OC)c(OC)c4)C3)n2)cc1 (stereo not drawn),0.45,0.05
Cc1cc(=O)n(CCCO)c(O)c1C#N,5.83,0.35
O=C1CC/C(=C\C(=S)N2CCOCC2)N1,.,2.3
COc1ccc(CCNC(=O)C2CCCN2S(=O)(=O)c2cccc3nsnc23)cc1OC (stereo not drawn),-1.52,0.65
S=C(Nc1cccc2ccccc12)NN1CCOCC1,6.64,-0.6
COc1ccccc1NC(=O)C1=C(C)NC(=O)NC1c1ccco1 (stereo not drawn),.,0.1
O=C(CC1COc2ccccc2O1)NCCc1ccccc1 (stereo not drawn),.,-0.25
CN1/C(=C\C(=O)CSc2nc3ccccc3o2)C(C)(C)c2ccccc21,.,-1.15
Cc1cccc(N2C(=O)CSC23C(=O)N(CN2CCOCC2)c2ccccc23)c1 (stereo not drawn),0.41,-0.6
O=C(NCc1ccc(Cl)cc1)c1ccccc1,-0.44,.
O=C(CN1C(=O)c2ccccc2C1=O)c1ccc(F)cc1,-0.14,0.15
CS(=O)(=O)c1cnc(N)nc1-c1cccc(F)c1,-0.16,.
COC(Cc1nnc(SCc2ccccc2)n1-c1ccccc1)OC,0.05,.
O=C(Cn1cc(C(F)(F)F)ccc1=O)N1CCc2ccccc21,.,-0.45
CCOc1ccc(NC(=O)CSc2ncnc3ccccc23)cc1,0.6,-0.5
O=C(Nc1ccccc1-c1ccccc1)NC1CCN(CC(=O)N2CCOCC2)CC1,.,0.35
Cc1nc2scc(C)n2c(=O)c1S(=O)(=O)NC1CCCCC1,75.1,-0.25
CC(C)c1ccccc1N=Cc1ccc[nH]1,-0.38,1.1
O=C(NCCO)c1ccc(C(=O)NCCO)cc1,0.08,-0.35
Cc1nc2cc(NC(=O)c3ccc(S(=O)(=O)N(C)C)cc3)ccc2s1,-0.745,.
O=C(Cn1c(CSc2ccccc2)nc2ccccc21)Nc1ccccc1F,0.42,.
Cc1cccc(NC(=S)N(C2CCCCC2)C(C)c2ccco2)c1 (stereo not drawn),0.36,-0.45
COc1ccc(CNCc2ccco2)cc1,0.48,-0.5
Cc1cc(C)c(NS(=O)(=O)c2cc([N+](=O)[O-])ccc2C)c(C)c1,-0.15,.
O=[N+]([O-])c1cc(OCc2ccccc2)c(OCc2ccccc2)c(OCc2ccccc2)c1,0,.
CCOC(=O)N1CCN(C(=O)C(CC(C)C)NC(=O)C2CCCCC2)CC1 (stereo not drawn),-0.285,0.05
O=C(CSc1nnc2sc3ccccc3n12)N1CCOCC1,-0.565,-1.25

# Part of the list above, as labelled records:
O=C(Nc1ccccc1-c1ccccc1)NC1CCN(CC(=O)N2CCOCC2)CC1
- Ba CapD inh = .
- AID504770 = 0.35
CN1/C(=C\C(=O)CSc2nc3ccccc3o2)C(C)(C)c2ccccc21
- Ba CapD inh = .
- AID504770 = -1.15
COc1ccc(CCNC(=O)C2CCCN2S(=O)(=O)c2cccc3nsnc23)cc1OC (stereo not drawn)
- Ba CapD inh = -1.52
- AID504770 = 0.65
COC(Cc1nnc(SCc2ccccc2)n1-c1ccccc1)OC
- Ba CapD inh = 0.05
- AID504770 = .

# The results go on:
SMILES,Ba CapD inh,AID504770
CCOC(=O)N1CCN(c2ncc(-c3ccc(OC)cc3)cn2)CC1,0.845,.
N#CCc1nc(-c2ccc(F)c(F)c2)cs1,-0.75,-0.15
Cc1cc(=O)oc2n[nH]c(-c3ccccc3)c12,40.9,0.45
COc1ccc(OC)c(-n2c(=S)[nH]c3cc(C(=O)NCCc4ccc(OC)c(OC)c4)ccc3c2=O)c1,0.03,.
O=C(c1ccc(S(=O)(=O)c2ccccc2)cc1)N1c2ccccc2Sc2ccccc21,0.5,.
CCn1nnc2c(N3c4ccccc4CC3C)ncnc21 (stereo not drawn),.,-0.9
COC(=O)CN1C(=O)C2(C(C#N)=C(N)Oc3n[nH]c(-c4ccc(OC)c(OC)c4)c32)c2ccccc21 (stereo not drawn),-0.35,.
O=c1oc2ccccc2c(O)c1Sc1ccccc1,-0.37,0.3
CCCN1C(=O)/C(=C\c2nc3ccccc3c(=O)n2-c2ccc([N+](=O)[O-])cc2)c2ccccc21,-0.18,.
COc1ccc(CCNC(=O)Cn2c(=O)c3ccccc3n(C)c2=O)cc1OC,0.545,.
CCOC(=O)c1ccc(S(=O)(=O)Nn2c(SCC(=O)Nc3ccc(C)cc3)nc3ccccc3c2=O)cc1,-0.195,.
CC(C)(C)OC(=O)N1Cc2ccccc2CC1C(=O)NCc1cccs1 (stereo not drawn),0.73,2.35
O=C(O)Cn1ncc2c3ccccc3n(Cc3ccc(Cl)cc3)c2c1=O,17.7,0.35
CC1=NN(c2cccc(C(=O)O)c2)C(=O)/C1=C\c1ccc(N2CCN(C)CC2)c([N+](=O)[O-])c1,0.025,.
Fc1cc(F)cc(COc2cc(Cl)cc(Cl)c2)c1,0.005,.
CC(C)(C)c1ccc(C(=O)Nc2cccc(C(F)(F)F)c2)cc1,-0.19,-0.25
CCn1cc(C(=O)NN)c(=O)c2cc(F)c(NN)cc21,2.37,-0.8
CC1=NN(c2cc(Cl)cc(Cl)c2)C(=O)CC1,0.58,-0.25
COC(=O)CSc1nc(N2CCOCC2)c2c(c1C#N)CC(C)(C)OC2,1.01,0.35
COc1ccc(C(=O)Oc2ccc3oc(=O)sc3c2)cc1,.,-1.9
COc1ccc(/C=C/C23NC(=O)CN2c2ccccc2C3(C)C)cc1 (stereo not drawn),0.355,.
O=C(COc1ccc(Cl)cc1)Nc1ccc2oc(-c3c(F)c(F)c(F)c(F)c3F)nc2c1,0.245,-0.5
O=C(O)CSc1nccc2ccccc12,.,-0.7
Cc1cccn2c(=O)c(/C=C3\SC(=S)N(CCc4ccccc4)C3=O)c(N3CCCC3)nc12,0.29,.
O=C(c1cnn2ccccc12)N1CCc2ccccc21,0.265,0.1
c1ccc2c(c1)CC1(CCCCC1)N=C2N1CCOCC1,-0.305,.
O=C(CN1CCCCCC1=O)OCc1cc(Cl)cc2c1OCOC2,.,0.05
CCN1CCC(NCc2ccccc2C(F)(F)F)CC1,0.43,0.75
O=C(O)c1cccc2c1C(=O)N(C1CCCCC1)C2,-0.29,-0.95
COc1ccc(CCNC(=O)CSc2nnc(C)s2)cc1OC,0.625,0.6
CC(=O)N1CC=C2C(C#N)=C(N)C(C#N)(C#N)C(C)C2C1 (stereo not drawn),.,0
O=C(Sc1ccccn1)N1c2ccccc2Sc2ccccc21,-0.405,-0.95
Cc1noc(C)c1CC(=O)N1CCN(S(=O)(=O)c2ccc3c(c2)OCCCO3)CC1,.,-0.25
COc1ccccc1N(C)S(=O)(=O)c1ccc(C(=O)Oc2ccc(-c3nnco3)cc2)cc1,.,0.3
COc1ccc(Cl)cc1S(=O)(=O)N(Cc1ccco1)CC1CCCO1 (stereo not drawn),-1.19,.
Oc1[nH]c(=S)sc1N=Nc1ccc(F)cc1F,-1.92,0.15
CCOC(=O)C1CCN(C(=O)c2c[nH]c3ccc(S(=O)(=O)N(CC)c4cccc(C)c4)cc3c2=O)CC1,2.27,.
COc1ccc(-c2nn(CO)c(=S)n2-c2ccccc2)cc1,0.71,-0.7
Cc1ccc(F)c2ncc3c(=O)n(-c4ccccc4Cl)[nH]c3c12,2.31,0.2
O=C(/C=C/c1ccco1)N/N=C/c1cccc2c1OCO2,0.035,.
CCOC(=O)c1ccc2nc(C(F)(F)F)cc(N3CCOCC3)c2c1,1.03,.
O=C(/C=C/c1ccc(Br)o1)Nc1ccc(N2CCOCC2)cc1,0.33,0.35
CC(C)(C)c1ccc(NC(=O)Nc2cc(C(F)(F)F)ccc2N2CCCC2)cc1,0.57,-0.2
CCOC(=O)NCc1ccc2c(c1)cc(C)n2C,-0.65&0.18,-0.55&-0.25
CC12CCC(C(=O)O)(CC1O)C2(C)C (stereo not drawn),-0.385,-0.75
COc1ccc(OC)c(NS(=O)(=O)c2cccs2)c1,0.005,-0.2
Cc1nnc(SCC(=O)O)n1N,.,1.5
c1csc(CNC23CC4CC(CC(C4)C2)C3)c1,.,-0.6
O=C(NN=C1C2CC3CC(C2)CC1C3)c1cccs1,0.4,1.2
Cc1ccc(-c2cc(C(N)=O)on2)cc1,-5.67*,-1.3

# (more compounds)
SMILES,Ba CapD inh,AID504770
CCN(CC)c1nc(-c2ccccc2)nc(-c2ccccc2)c1C#N,-0.175,-0.65
CNC(=O)NCc1c(F)cccc1Cl,0.09,-1.3
O=C1C=C(Nc2ccc(I)cc2)CCC1,-0.25,2
COCC1=C(C(=O)OC)C(c2cccc(Cl)c2)C(C#N)=C(N)O1 (stereo not drawn),1.12,.
CCOC(=O)c1sc(NC(C)=O)nc1-c1ccccc1,1.77,-0.7
CCOC(=O)c1n[nH]n(-c2cc(C(F)(F)F)cc(C(F)(F)F)c2)c1=O,-0.245,.
COc1cc(/C=C2\N=C(c3ccc(C)c(C)c3)OC2=O)cc(Br)c1OC(C)=O,0.25,.
c1ccc(-n2nnnc2NCC(c2cccs2)c2c[nH]c3ccccc23)cc1 (stereo not drawn),.,0.05
CC(=O)c1ccc(N=Cc2c(C)[nH]n(-c3ccc(C)c(C)c3)c2=O)cc1,-0.365,.
CCc1ccc(NC(=O)C2NC(=O)CC2c2ccccc2)cc1 (stereo not drawn),1.1,-0.95
CCC(=O)N1CCc2cc(S(=O)(=O)CCC(=O)Nc3ccc4c(c3)OCCO4)ccc21,-0.04,-0.15
CN(C(=O)CN1CCOCC1)n1cnc2ccsc2c1=O,0.09,0.45
CC12CC[C@H]3[C@@H](CCC4(O)C[C@H](O)CCC34/C=N/NC(=O)c3ccc4ccccc4n3)C1(O)CCC2C1=CC(=O)OC1 (stereo partly drawn),-0.32,.
CC1=CCC2C(=O)N(c3cc(C)on3)C(=O)C2C1 (stereo not drawn),0.42,-0.7
O=C(C1CCCCC1)N1N=C2/C(=C/c3ccco3)CCCC2C1c1ccco1 (stereo not drawn),.,-0.35
CC(C)c1ccc(Nc2nc(N3CCOCC3)nc(N3CCOCC3)n2)cc1,0.9,.
CC(C)(C)c1ccc2c(c1)OCC(C(=O)O)O2 (stereo not drawn),.,0.1
O=C1CCCCCN1Cc1n[nH]c(=S)o1,.,-0.5
NC(=O)CCSc1n[nH]c(=S)s1,.,-0.95
CSC(N)=Nc1cc(Cl)ccc1Cl,0.09,.

# Already shown: entries from further up.
SMILES,Ba CapD inh,AID504770
CC12CC[C@H]3[C@@H](CCC4(O)C[C@H](O)CCC34/C=N/NC(=O)c3ccc4ccccc4n3)C1(O)CCC2C1=CC(=O)OC1 (stereo partly drawn),-0.32,.
CC1=CCC2C(=O)N(c3cc(C)on3)C(=O)C2C1 (stereo not drawn),0.42,-0.7
O=C(C1CCCCC1)N1N=C2/C(=C/c3ccco3)CCCC2C1c1ccco1 (stereo not drawn),.,-0.35
CC(C)c1ccc(Nc2nc(N3CCOCC3)nc(N3CCOCC3)n2)cc1,0.9,.
CC(C)(C)c1ccc2c(c1)OCC(C(=O)O)O2 (stereo not drawn),.,0.1

# (more compounds)
SMILES,Ba CapD inh,AID504770
O=C1CCSc2c1cccc2C(=O)NCCCN1CCOCC1,-0.83,0.25
CCc1ccc(NC(=O)c2cccc3c2C(=O)N(CCOC)C3)cc1,-0.345,0.4
CC(=O)NCCn1c(SCC(=O)Nc2ccccc2Cl)nc2ccccc2c1=O,-0.225,-1.1
O=C(c1c2c(nc3ccccc13)C(=O)N(C1CCCCC1)C2)N1CCCCCC1,-0.285,-0.7
O=C(Cn1ccc2ccccc2c1=O)NCCC(=O)N1CCCC1,5.15,-1.2
O=C1c2ccccc2-c2c1cnc1c(-c3ccccc3)cnn21,0.09,-0.45
CCCCCCOc1ccc(C(=O)CCC(=O)O)cc1,-0.875,.
Cn1c(=O)c2c(nc3oc(C(C)(C)C)cn32)n(C)c1=O,.,1.1
COc1ccc(CN2CCCN(Cc3ccc(OC)cc3)C2c2ccc(OC)cc2)cc1,0.06,0.1
CC(C(=O)O)N1C(=O)/C(=C\c2ccco2)SC1=S (stereo not drawn),-4.89*,0.15
O=C(c1cc2c(s1)CCCC2)N1CCN(CCO)CC1,-0.825,1.7
N#C/C(=N\Nc1ccccc1C(F)(F)F)C(=N)N1CCOCC1,-2.08,0.8
Cc1ccc(NC(=O)C(C)C)c(C(=O)c2ccccc2)c1,0.48,0.5
O=C1c2c(Cl)c(Cl)c(Cl)c(Cl)c2C(=O)N1C1C(=O)N(c2ccc(Br)cc2)C1c1cccs1 (stereo not drawn),-0.575,.
Cc1nnc(NC(=O)c2nn(-c3ccccc3)nc2C)s1,-0.28,.
CCc1ccc(NC(=O)CC#N)cc1,-0.17,-0.05
CC(C)NCc1nc(-c2ccc(Cl)cc2)no1,-0.18,0
CCOc1cccc2c1OC(c1cccc(OC)c1OC)N1N=C(c3cccc(OC)c3)CC21 (stereo not drawn),1.42,.
NC(=O)c1cccc2c1-c1ccccc1C2=O,-0.29,.
CSC1=N/C(=C\c2ccccc2)C(=O)S1,0.085,1.3

# Whole records, looked up by structure. Order of values: Ba CapD inh | AID504770
# Cc1ccc(NC(=O)C(C)C)c(C(=O)c2ccccc2)c1 is listed with 0.48 | 0.5
# O=C(c1cc2c(s1)CCCC2)N1CCN(CCO)CC1 is listed with -0.825 | 1.7
# N#C/C(=N\Nc1ccccc1C(F)(F)F)C(=N)N1CCOCC1 is listed with -2.08 | 0.8
# CSC1=N/C(=C\c2ccccc2)C(=O)S1 is listed with 0.085 | 1.3

# Following part:
SMILES,Ba CapD inh,AID504770
Oc1ccccc1C=Nc1ccc(Cl)cn1,4.82,.
CCOc1ccc(CCNC(=O)C2CCC(=O)N2C2CCCCC2)cc1OCC (stereo not drawn),0.77,-0.1
Cc1ccc(NC(=O)NC(NC(=O)Cc2ccccc2)(C(F)(F)F)C(F)(F)F)cc1C,-0.15,0.1
COC(=O)C1CC2=CC(=O)CCC2(C)C2C(O)CC3(C)C(CCC34CCC(=O)O4)C12 (stereo not drawn),0.025,1.9
